BJeLR viability – MLPCN primary cell-based screen for lethality selective to Ras in HRASV12 cells; AID 1554, 2009; hit rate 0.17% among 300,000; BJeLR (HRASV12) viability, CellTiter-Glo ATP luminescence, 48 h; reference of the scale not given here; inhibition, % (test concentration not listed);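 active = replicate mean above 50%; inconclusive = above 50% but judged a plate artefact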;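 note: 50 nL library stock added to about 25 µL; numbers are from one replicate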
ugtP null kill – growth inhibition of ugtP-null S. aureus, primary screen, RN4220 ugtP deletion, OD600; growth inhibition, % (no concentration beside the values); AID 1259309, 2017; 16 h; some inactives read as strong as hits; hit rate 0.54% among 330,000;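 active = z-score under -3 and OD600 up to 0.15 on both plates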;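 note: plate controls were untreated wells for no effect and antibiotic for full effect; wells of about 80 µL received 100 nL stock; the first replicate is given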
PrP UTR inh – inhibition of PrP 5' UTR reporter expression. cell-based PrP 5' UTR mRNA reporter, plate reader. hit rate 0.35% among 340,000. inhibition, % (test concentration not listed);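 active = every replicate at 50% or more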;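 note: 0 = median of the neutral control wells; tested in H4 reporter cells; numbers are from one replicate; inactives centre near -14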
Bead autofluor – flagged as autofluorescent in microsphere protease counterscreen; hit rate 3.1% among 360,000; AID 624483; fluorescence intensity (no concentration beside the values); compound autofluorescence counterscreen, microsphere flow cytometry; stronger effect = higher value;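 active = at least 3 SD above the mean of all compounds, about 16000 in these data; inconclusive = too few beads counted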;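 note: 100 nL of 1 mM stock went into each well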
RN4220 kill – growth inhibition of S. aureus RN4220, primary screen, OD600; 16 h; inhibition, % (no concentration beside the values); hit rate 0.33% among 330,000;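 active = z-score of -3 or lower and OD600 up to 0.18 on both plates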;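 note: plate controls were untreated cells for no effect and reference antibiotic for full effect; stock transfer was 100 nL into about 80 µL; one replicate is shown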
Mtb hypoxia rep – PubChem AID 1159583; M. tuberculosis hypoxia-regulated fluorescent reporter, fluorescence; fluorescence inhibition, % (no concentration beside the values); hit rate 0.1% among 300,000;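 active = 35 to 45% if threefold the growth effect, above 45% if 1.5-fold the growth effect; inactive = the rest, general growth blockers included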;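 note: wells of about 50 µL received 100 nL stock; 0% = vehicle wells and 100% = reference inhibitor wells; whole bacteria with a GFP reporter of the hypoxia response; strong numbers were not always called active; many hits fall short of the cut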
Mtb hypoxia rep growth – recorded beside Mtb hypoxia rep, whose call it bears; growth inhibition, %; measured here: M. tuberculosis growth (absorbance);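 0% = vehicle and 100% = reference antibiotic; read after six days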
* hit, by the source's call; ? = inconclusive; . = not tested or not shown. An unsorted share of the library, and some 4% of all compounds hit somewhere here.

SMILES	BJeLR viability	ugtP null kill	PrP UTR inh	Bead autofluor	RN4220 kill	Mtb hypoxia rep	Mtb hypoxia rep growth
Cc1snc2sc(C(=O)c3ccc(F)cc3)c(N)c12	-1	8	-34	4373	2.5	-1	9
Nc1ccc(C(=O)N2CCN(S(=O)(=O)c3ccc(Br)cc3)CC2)cc1[N+](=O)[O-]	2	1	0	5319	-1.1	-4	6
OCCOc1ccc(CN2CCN(CCCc3ccccc3)C(CCO)C2)cc1 (configuration not stated)	-1	4	-13	3926	1.3	-2	8
CCCCn1c(N)c(N(CC)C(=O)CSc2nnnn2-c2cc(C)ccc2C)c(=O)[nH]c1=O	-5	-3	-22	4150	-1.9	-1	6
CSc1ccccc1NC(=O)c1ccccc1C	3	6	-11	3330	1.7	6	3
COc1ccc(Cl)cc1NC(=O)COc1ccc(S(=O)(=O)N2CCOCC2)cc1C	-6	4	-29	5513	1.6	-8	-8
CC1CN(C(C)CO)C(=O)c2cccc(NC(=O)c3ccncc3)c2OC1CN(C)S(=O)(=O)c1ccccc1 (configuration not stated)	.	-6	.	.	1.8	-5	3
Cc1ccc2oc(=O)n(Cc3ccccc3OC(C)C)c2c1	2	24	-12	3575	7.0	5	3
Clc1ccc(CNCCCSc2ncccn2)cc1Cl	-3	0	-9	4067	2.2	9	7
O=C(c1ccc(N2CCCCC2)c([N+](=O)[O-])c1)N1CCN(S(=O)(=O)c2ccccc2)CC1	-6	3	-24	?	1.4	4	-1
Cc1cc(C)cc(NS(=O)(=O)c2cccs2)c1	-5	-7	-19	4073	6.6	11	-7
COc1ccc(NC(=O)CC2Sc3ncnn3C2=O)cc1 (configuration not stated)	2	0	-8	6099	10	.	.
COc1ccc(/C=C/C(=O)NCc2ccccn2)cc1OC	-17	8	-11	2091	2.6	-10	-3
CC(C)CNS(=O)(=O)c1ccc(OCC(=O)Nc2ccc3c(c2)OCO3)c(Cl)c1	-4	-8	-11	16265*	0.1	-5	-16
Cn1c(=O)c2c(nc(CN3CCN(Cc4ccccc4)CC3)n2Cc2ccc(Cl)cc2)n(C)c1=O	8	-1	18	4559	0.5	3	14
CCN1CCN(CCCNC(=O)c2ccc(CS(=O)c3ccc(Br)cc3)o2)CC1 (configuration not stated)	-8	15	-11	4819	4.5	6	6
CC(C)Cc1nnc(NC(=O)CSc2ccccn2)s1	3	15	-12	2325	4.0	15	13
CN(C)S(=O)(=O)c1ccc(NC(=O)C2CC3C=CC2C3)cc1 (configuration not stated)	0	4	-13	2604	2.5	-5	-4
Cc1cc(C)cc(N(CC(=O)NCc2ccc(F)cc2)C(=O)c2snc(C(N)=O)c2N)c1	9	5	-5	3734	3.5	13	12
Cc1ccc(N(CC(=O)NC2CCCCC2)S(=O)(=O)c2c(C)nn(C)c2C)cc1	15	12	3	5920	5.7	5	1
Cn1c(-c2ccc(F)cc2)cnc1NCc1ccccc1F	0	-1	-12	4159	0.4	-14	12
CCOC(=O)NC(=O)/C(N=Nc1cc(C)cc(C)c1)=C(\C)O	8	-3	-21	3660	4.2	15	8
CCN1C(=O)CC(c2cccnc2)=Nc2ccccc21	-12	-1	-15	4067	0.3	-10	7
CSCCC(NC(=O)COc1ccccc1)C(=O)NCC1COc2ccccc2O1 (configuration not stated)	2	11	-6	3968	4.2	5	3
S=C(Nc1ccccc1Cl)Nc1ccc(Cl)cc1Cl	-12	0	-12	3267	-9.8	2	9
COc1ccc(C2C(C#N)=C(N)N(c3cccnc3)C3=C2C(=O)CC(C)(C)C3)cc1OC (configuration not stated)	6	-3	-8	10529	2.3	5	3
Cn1cc(S(=O)(=O)Nc2ccc3c(c2)OCCO3)cn1	4	1	-18	4511	2.1	2	4
CCN(CC)C(C)C(=O)Nc1c2c(cc3c1CCC3)CCC2 (configuration not stated)	2	2	-30	2813	2.9	1	2
CC1=C(C(=O)NC(C)c2ccc3c(c2)OCCO3)C2(CCC(C)CC2)OC1=O (configuration not stated)	1	5	-13	5856	2.1	.	.
FC(F)(F)c1cc(CCN2C(=S)NC[C@@H]2c2ccccc2)cc(C(F)(F)F)c1	5	.	-2	3829	.	.	.
CC(C)CN(CC(C)C)c1ccc(/C=N/n2cnnc2)cc1[N+](=O)[O-]	-1	.	-14	2542	.	.	.
O=S(=O)(Nc1cccc2c1CCCC2)c1cccc(C(F)(F)F)c1	3	-23	-7	2677	10	1	2
O=C1C2C3CCCC3=C3CCCC3C2C(=O)N1c1ccccc1 (configuration not stated)	4	-6	-21	.	-12	6	17
Cc1ccnc(N2CCN(c3cc(C)c(C#N)c4nc5ccccc5n34)CC2)c1	6	8	-2	5271	9.9	5	5
CN(C)c1ccc(C(C(=O)NC2CCCC2)N(C(=O)c2csnn2)C2CC2)cc1 (configuration not stated)	-5	8	-21	3963	1.1	7	-4
COc1ccc(/C=C/C(=O)Oc2ccc(/C=N/NC(=O)c3ccncc3)cc2)cc1	-3	.	-20	6709	.	.	.
COc1ccc(CN2CCNC(=O)C2CC(=O)N(C)Cc2nonc2C)c(F)c1 (configuration not stated)	-7	15	-14	5235	2.2	8	-7
Cc1ccc2nc(SCC(=O)Nc3cccc(Cl)c3)nc(=O)n2c1	0	3	-20	.	9.1	2	-1
O=C(c1cc(-c2ccncc2)nc2ccccc12)N1CCN(c2ccc(N3CCOCC3)nn2)CC1	18	-4	-5	10969	0.1	-10	8
CCCCCCc1cc2cc(C(=O)Nc3ccccc3)c(=O)oc2cc1O	34	34	-37	11231	79	9	7
COc1cccc(NC(=O)CN(c2cccc(C(F)(F)F)c2)S(C)(=O)=O)c1	5	-7	-1	4178	4.0	2	5
CN(c1ccc(OCC(=O)Nc2nc3ccccc3s2)cc1)S(=O)(=O)c1ccccc1	-6	-2	-17	2301	1.3	-15	-4
Cc1ccc2c(c1)NC(=O)C(CC(=O)O)O2 (configuration not stated)	-12	11	-11	6921	1.2	.	.
COc1cc2c(cc1NC(=O)CSc1nc3ccc(C)cc3[nH]1)oc1ccccc12	10	-12	.	.	19	8	7
O=C(c1cccc(F)c1)N1CCCC(C(=O)N2CCN(c3ccccc3)CC2)C1 (configuration not stated)	2	4	-6	4192	2.6	-13	-23
Cc1onc(-c2ccccc2)c1-c1csc(COc2ccccc2)n1	0	19	-5	4947	2.5	5	5
Nc1nc(-c2ccc(Cl)cc2)nn1C(=O)c1cccnc1	8	2	.	9823	1.8	6	4
COc1ccc(C(=O)OCC(=O)c2ccc(C3CCCCC3)cc2)cc1	2	18	-13	4768	-2.6	.	.

Full records as entered above.
Cc1onc(-c2ccccc2)c1-c1csc(COc2ccccc2)n1 in the list: BJeLR viability: 0; ugtP null kill: 19; PrP UTR inh: -5; Bead autofluor: 4947; RN4220 kill: 2.5; Mtb hypoxia rep: 5; Mtb hypoxia rep growth: 5
Cc1cc(C)cc(NS(=O)(=O)c2cccs2)c1 in the list: BJeLR viability: -5; ugtP null kill: -7; PrP UTR inh: -19; Bead autofluor: 4073; RN4220 kill: 6.6; Mtb hypoxia rep: 11; Mtb hypoxia rep growth: -7

Back to the main list; the 4 compounds before the break are reprinted first.
SMILES	BJeLR viability	ugtP null kill	PrP UTR inh	Bead autofluor	RN4220 kill	Mtb hypoxia rep	Mtb hypoxia rep growth
O=C(c1cccc(F)c1)N1CCCC(C(=O)N2CCN(c3ccccc3)CC2)C1 (configuration not stated)	2	4	-6	4192	2.6	-13	-23
Cc1onc(-c2ccccc2)c1-c1csc(COc2ccccc2)n1	0	19	-5	4947	2.5	5	5
Nc1nc(-c2ccc(Cl)cc2)nn1C(=O)c1cccnc1	8	2	.	9823	1.8	6	4
COc1ccc(C(=O)OCC(=O)c2ccc(C3CCCCC3)cc2)cc1	2	18	-13	4768	-2.6	.	.
C=CCn1c(SCC(=O)NCCOC)nnc1-c1cc2c(s1)CCC(CC)C2 (configuration not stated)	3	0	-17	2564	1.4	-3	-6
Cc1noc(C)c1COc1cccc(C(=O)Nc2ccccc2N2CCOCC2)c1	8	13	-9	2531	7.3	1	4
Nc1cccc(-c2cn3cccnc3n2)c1	11	2	-5	4127	-1.3	-5	4
CC1CN(C(C)CO)C(=O)c2cc(NS(=O)(=O)c3ccccc3)ccc2OC1CN(C)C(=O)Nc1ccccc1 (configuration not stated)	.	5	.	.	3.6	3	2
CCCCCCCCCCCC(=O)NC1CCS(=O)(=O)C1 (configuration not stated)	-10	5	-7	4181	7.8	14	-1
Cc1c(N(C)C(=O)c2ccc3c(c2)OCO3)c(=O)n(-c2ccccc2)n1C	1	3	-14	4591	2.2	0	0
CCC(C)CCN1C(N(C)C)=NCC1Cc1ccccc1 (configuration not stated)	.	-3	.	.	5.2	11	6
O=C(Nc1ccc(OCc2ccccc2)cc1)c1cccc([N+](=O)[O-])c1	-2	-1	-27	1959	3.4	7	1
O=C(CCN1C(=O)C2C3C=CC(C3)C2C1=O)Nc1ccc2c(c1)OCO2 (configuration not stated)	.	-5	-25	2607	-3.3	.	.
O=C(CCNC(=O)c1ccc([N+](=O)[O-])cc1)Nc1ccc(F)cc1	-2	15	-28	3583	4.5	2	-10
Cn1ccc(=NC=C(C#N)C#N)c2ccccc21	3	-2	-38	4359	-1.2	9	0
CC(C)CC(NC(=O)C(NC(=O)OC(C)(C)C)C(C)C)C(N)=O (configuration not stated)	1	2	-24	2189	0.7	-4	-2
CCCn1nnc(NC(=S)NC(=O)c2cccs2)n1	3	3	-17	2455	3.8	12	0
Cc1ccc(NC(=O)Cn2c(=O)cnc3ccccc32)cc1S(=O)(=O)N1CCCCC1	.	-3	-12	8963	0.1	-12	-6
N#Cc1cc(-c2ccccc2)oc1NC(=O)c1ccco1	-12	-7	-22	8432	3.6	5	3
CC(=O)N=C1SC2CS(=O)(=O)CC2N1c1ccc(-c2nc3ccc(C)cc3s2)cc1 (configuration not stated)	-2	4	.	.	3.6	6	-7
Cc1cc(NCCN2CCCCC2)n2c(nc3ccccc32)c1C#N	2	16	.	.	22	-10	-1
CCN(CC(=O)NCc1cccs1)C(=O)Cc1ccc(Cl)c(Cl)c1	.	1	-19	3886	0.1	12	6
O=C(CN1CCOCC1)Nc1ccc2c(c1)OC(F)(F)O2	-2	3	-37	4435	2.6	7	6
O=C(c1ccco1)N1CCN(C(c2ccccc2Cl)c2nnnn2Cc2ccco2)CC1 (configuration not stated)	.	3	-29	4356	1.7	1	5
COc1ccc(C(C)=O)cc1COC(=O)C(CO)NS(=O)(=O)c1ccc(Br)cc1 (configuration not stated)	5	5	-20	3554	5.2	2	11
CC1CCCC(C)N1C(=O)COC(=O)CCC(=O)c1ccc(F)cc1 (configuration not stated)	.	7	-13	3941	2.8	12	6
CC(=O)N1CCC2(CC1)CC(=O)c1cc(OCC(=O)NCc3ccc(C)cc3)ccc1O2	3	1	-24	11150	-0.3	5	8
O=c1cc(-c2cccc(F)c2)[nH]c2ccccc12	20	7	19	2920	9.3	-6	5
CCCOc1ccc(-c2nnn(CC(=O)c3c[nH]c4ccccc34)n2)cc1	-3	-1	-14	10073	0.1	5	-3
COc1ccc2oc(C)c(C(=O)c3ccc([N+](=O)[O-])cc3)c2c1	-6	3	-12	2487	13	1	8
O=C(CC1C[C@H](C(=O)N2CCCCC2)[C@@]2(CCc3ccccc3)c3[nH]c4ccccc4c3CCN2C1=O)NCc1cccc(C(F)(F)F)c1 (some centres not stated)	.	-18	3	3608	-5.8	3	7
Cn1c(=O)c2c(-c3ccccc3)n(-c3ccccc3O)cc2n(C)c1=O	-3	5	-23	9154	0.4	-1	2
CCn1cnc2sc(C(=O)N(Cc3ccc(N(C)C)cc3)Cc3ccco3)c(C)c2c1=O	-6	2	-12	2987	-0.5	-5	-6
O=S(=O)(Nc1c(O)ccc2ccccc12)c1ccccc1	6	-1	-3	.	9.5	11	7
Cc1cc(C)n(CC2CC(=O)N(c3ccc(F)c(Cl)c3)C2=O)n1 (configuration not stated)	.	6	-14	3591	0.7	.	.
CNCc1sccc1C	-8	0	-22	3999	5.1	3	5
CCOc1ccc2cc(/C=C/C(=O)c3ccco3)c(Cl)nc2c1	-3	24	-47	9601	7.5	7	4
O=C(COc1ccc2ccccc2c1)NC1CC1	12	2	-27	4660	-0.2	.	.
